High-throughput results as filed in PubChem BioAssay.
STK33 inh = inhibitors of purified STK33 kinase, primary screen, biochemical, ADP-Glo luminescence, homogeneous, cell-free; Serine/threonine-protein kinase 33 (Homo sapiens), Q9BYT3; MBP phosphorylation; inhibition, % at 10 µM; actives 0.073% (n = 320,000); AID 2661, 2010;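 active = inhibition at or above 25%, using the most active replicate where run in duplicate; inactive = inhibition below 25%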
Target sequence (Q9BYT3 whole entry, looked up): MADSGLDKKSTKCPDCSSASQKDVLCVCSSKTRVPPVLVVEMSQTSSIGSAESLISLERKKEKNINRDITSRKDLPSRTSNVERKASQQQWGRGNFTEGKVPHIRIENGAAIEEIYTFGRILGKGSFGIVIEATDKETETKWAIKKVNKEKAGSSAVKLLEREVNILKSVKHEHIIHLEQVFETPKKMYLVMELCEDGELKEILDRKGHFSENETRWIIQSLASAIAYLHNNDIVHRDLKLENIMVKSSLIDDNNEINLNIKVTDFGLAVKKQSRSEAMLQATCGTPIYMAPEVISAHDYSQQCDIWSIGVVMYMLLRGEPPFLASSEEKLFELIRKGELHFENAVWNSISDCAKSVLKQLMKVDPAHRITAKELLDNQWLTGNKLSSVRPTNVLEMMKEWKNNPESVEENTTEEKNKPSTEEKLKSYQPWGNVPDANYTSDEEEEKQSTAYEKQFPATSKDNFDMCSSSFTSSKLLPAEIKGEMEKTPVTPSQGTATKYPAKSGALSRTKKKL
An asterisk follows results filed as active. Some of the compounds tested, and most or all hits are left out here.

A first look:
SMILES | STK33 inh
COc1ccc(CCNC(=O)c2ccc(CSc3ccccc3)o2)cc1 | -1.0
O=C(CCn1c(=O)c2ccccc2n(CC(=O)N2CCN(c3ccccc3)CC2)c1=O)NCc1ccco1 | -0.1
C/C(=N/NC(=O)c1cc(-c2ccc(Br)s2)[nH]n1)c1ccco1 | 0.5
C[C@@H](NC(=O)c1[nH]cnc1C(=O)Nc1ccccc1)c1ccccc1 | -2.1
COc1ccc2c(C)cc(N3CCCCCC3)nc2c1 | -0.3

Results, repeating the preview:
SMILES | STK33 inh
COc1ccc(CCNC(=O)c2ccc(CSc3ccccc3)o2)cc1 | -1.0
O=C(CCn1c(=O)c2ccccc2n(CC(=O)N2CCN(c3ccccc3)CC2)c1=O)NCc1ccco1 | -0.1
C/C(=N/NC(=O)c1cc(-c2ccc(Br)s2)[nH]n1)c1ccco1 | 0.5
C[C@@H](NC(=O)c1[nH]cnc1C(=O)Nc1ccccc1)c1ccccc1 | -2.1
COc1ccc2c(C)cc(N3CCCCCC3)nc2c1 | -0.3
CCC(=O)n1nc(-c2ccccc2)nc1SCC(=O)Nc1ccc(C)cc1 | -0.6
Cc1cc(NC(=O)CSc2nc3cc(Cl)ccc3c(=O)n2Cc2ccco2)no1 | -0.4
CC1=C(C(=O)Nc2ccccc2F)C(c2ccsc2)C2=C(CC(C)(C)CC2=O)N1 (stereo not drawn) | -0.1
O=C(CCc1nc2ccccc2[nH]1)N1CCc2ccccc2C1 | 0.3
CCOC(=O)c1c[nH]c2nc(C)ccc2c1=O | 0.5
COc1ccccc1NC(=O)C1CCN(c2ncnc3c2nc2n3CCCCC2)CC1 | -2.1
COc1ccc(NC(=O)C23CCC(C)(C(=O)C2)C3(C)C)cc1 (stereo not drawn) | -1.8
O=C(Nc1ccc(N2CCN(Cc3ccccc3)CC2)cc1)c1ncn[nH]1 | 0.1
CC(C)c1ccc(NC(=O)C(c2ccccc2)N(C)C(=O)c2cnccn2)cc1 (stereo not drawn) | -0.2
CCOc1ccc(CCNC(=O)COC(=O)C2CCN(c3ccc(C(F)(F)F)cn3)CC2)cc1OCC | 0.5
COc1ccc(NC(=O)CN2C(=O)NC3(CCCCC3C)C2=O)cc1OC (stereo not drawn) | -0.3
CC1(C)NC(=O)N(CC(O)COc2ccccc2C(=O)N2CCCCC2)C1=O (stereo not drawn) | -0.5
Cc1ccc(/C=N/NC(=O)c2nc3nc(C)cc(C)n3n2)cc1 | -0.4
COc1ccc(C)cc1NC(=O)C(Sc1nnc2ccccn12)c1ccccc1 (stereo not drawn) | -0.5
COc1ccc2cc(C(=O)C3CCCN(C(=O)CSc4nnc(C)o4)C3)ccc2c1 (stereo not drawn) | -0.4
Cc1oc2ccc(OC(=O)c3cccs3)cc2c1C(=O)OC(C)C | -0.5
CC(=O)OC(C)C(=O)NS(=O)(=O)c1ccc(C)cc1 (stereo not drawn) | -0.6
CCn1c(N)c(C(=O)NC)sc1=S | -0.6
CC(=O)Nc1ccc(S(=O)(=O)NCC(=O)NNC(=O)c2csc(N3CCOCC3)n2)cc1 | -1.5
COc1cc(NC(=O)CSc2ccccc2)c(C(=O)O)cc1OC | 5.1

Looked up above:
In STK33 inh, COc1ccc(NC(=O)CN2C(=O)NC3(CCCCC3C)C2=O)cc1OC (stereo not drawn) shows -0.3
In STK33 inh, CC(=O)Nc1ccc(S(=O)(=O)NCC(=O)NNC(=O)c2csc(N3CCOCC3)n2)cc1 shows -1.5
In STK33 inh, CC1(C)NC(=O)N(CC(O)COc2ccccc2C(=O)N2CCCCC2)C1=O (stereo not drawn) shows -0.5

Going on with the list:
SMILES | STK33 inh
COc1ccc(N2C(=O)C3C4C=CC(C4)C3C2=O)c(OC)c1 (stereo not drawn) | -0.1
COc1cc(N2CCCC2)c(OC)cc1C=O | 1.8
CSc1ccc(C(=S)N2CCN(C(c3ccccc3)c3ccccc3)CC2)cc1 | -1.5
CC(OCC(O)CN(C)CCOc1ccccc1)c1ccc(Cl)cc1 (stereo not drawn) | 1.4
CCn1c(CSc2nc(C)cc(C)n2)nnc1SCC(N)=O | 2.2
CC(=O)c1cccc(CN2CCC(n3nccc3NC(=O)CCOc3ccccc3)CC2)c1 | -0.5
COc1cc(OC)cc(-c2c(C#Cc3ccsc3)c3cc(-c4ccccc4OC)ccc3n2C)c1 | 0.0
O=C(NCc1ccccc1)c1onc(CS(=O)(=O)c2ccc(Cl)cc2)c1C(=O)NCc1ccccc1 | -2.1
Cc1cc(NC(=S)NC(=O)/C=C/c2ccc(S(=O)(=O)N3CCOCC3)cc2)ccc1Br | -2.4
CCOC(=O)CNC(=O)c1cccnc1 | -2.3
O=C(CCNC(=O)c1ccc([N+](=O)[O-])cc1)Nc1cccc(S(=O)(=O)N2CCCCC2)c1 | -0.1
CC(C)OCCCNC(=O)C1CCN(S(=O)(=O)N2CCCCC2)CC1 | -0.7
CC(=O)N(C)c1ccc(NC(=O)COc2ccc(Br)cc2C)cc1 | -1.1
Cc1ccc(S(=O)(=O)NCCSc2nnnn2-c2ccccc2)cc1 | -2.2
COc1cc(C=Nc2ccccc2C(=O)Nc2ccccc2)cc(OC)c1OC | -3.2
COc1ccc(C2=NN(C(=O)COc3ncnc4ccccc34)C(c3ccco3)C2)cc1 (stereo not drawn) | 0.8
CC1CCc2c(sc3ncn4c(SCC(=O)NCc5ccco5)nnc4c23)C1 (stereo not drawn) | -1.3
CCCCN(C(=O)c1cc(CC)c(C)s1)c1c(N)n(CCC)c(=O)[nH]c1=O | -0.1
O=S(=O)(c1ccc(Br)cc1)N1CCCN(Cc2cccc(F)c2)CC1 | 0.6
Cc1ccc2nc(NCCCO)nc(-c3ccccc3)c2c1 | -0.7
CCCC[C@@H]1C=C(C(=O)O)[C@H](c2ccc(C)cc2)N1S(=O)(=O)c1ccc(C)cc1 | -0.7
C=CCc1c(NCCO)nc(C)[nH]c1=O | -0.3
O=C(CSc1ccc(-c2cccc([N+](=O)[O-])c2)nn1)NC1CCCC1 | -1.8
CC1CCN(S(=O)(=O)c2cccc(C(=O)NCc3cccs3)c2)CC1 | -0.2
COc1ccccc1C1=CC(=O)CC(C)(C)C1=O | -0.7

Three compounds picked at random from the list so far:
SMILES | STK33 inh
O=C(CCNC(=O)c1ccc([N+](=O)[O-])cc1)Nc1cccc(S(=O)(=O)N2CCCCC2)c1 | -0.1
COc1ccc(N2C(=O)C3C4C=CC(C4)C3C2=O)c(OC)c1 (stereo not drawn) | -0.1
CC(C)OCCCNC(=O)C1CCN(S(=O)(=O)N2CCCCC2)CC1 | -0.7

(next part)
SMILES | STK33 inh
CCCCNc1ncnc2c1cnn2-c1ccccc1 | -2.5
CCc1ccccc1NC(=O)CCNS(=O)(=O)c1cc(Br)cnc1N | -0.1
O=C(CNS(=O)(=O)c1ccc(Br)s1)N1CCN(c2ccc(F)cc2)CC1 | -0.4
CCN1/C(=C(\O)c2ccccc2)C(=O)c2ccccc2S1(=O)=O | 0.0
CCCCN(C(=O)c1ccc([N+](=O)[O-])o1)c1c(N)n(CC(C)C)c(=O)[nH]c1=O | 1.2
CCCCN(CC)CCCNC(=O)c1cc2c(-c3ccc(OC)c(OC)c3)nn(C)c2s1 | 1.6
C/C=C/C(=O)OCC(=O)Nc1ccccc1Br | -0.2
CCN(CC(=O)Nc1ccc(OC)cc1)C(=O)c1ccccc1Sc1ccccc1C#N | -1.8
Cc1ccc2nc(-c3cccc(NC(=O)c4ccc5c(c4)OCCO5)c3)oc2c1 | -0.9
Cn1cc(/C=N/NC(=O)COc2ccccc2[N+](=O)[O-])c2ccccc21 | 0.9
COc1ccc(C(=O)Nc2c(N)nc(SCC(=O)NCC3CCCO3)[nH]c2=O)cc1OC (stereo not drawn) | -3.2
COc1cc2c(cc1OC)CN(S(=O)(=O)c1ccccc1F)CC2 | -1.3
COc1ccc(OC)c(N(CC(=O)N2CCCC2)S(C)(=O)=O)c1 | -0.2
COCc1nnc(NC(=O)c2ccccc2Oc2ccccc2)s1 | 0.1
CC1=CC(C)(C)N2C(=O)C3(C(C#N)=C(N)Oc4cc(O)ccc43)c3cccc1c32 (stereo not drawn) | -0.7
O=C(O)CCc1ccc(-c2cccs2)n1NC(=O)c1ccc(Cl)cc1Cl | -0.4
COCCn1c(SCC#N)nnc1-c1ccccc1 | 1.3
C=CCSC1=C(C#N)C(c2ccc(OCC)cc2)CC(=O)N1 (stereo not drawn) | -0.2
N/C(=N\c1nc(CSc2ccccn2)cc(=O)[nH]1)Nc1ccc(Cl)cc1Cl | 1.2
CCOC(=O)c1c(CN2CCN(c3ccccc3)CC2)oc2cc(Br)c(O)cc12 | -1.2
CCOC(=O)N1CCN(Cc2nc3cc(NC(=O)c4ccco4)ccc3n2CC)CC1 | -0.3
O=C(c1ccco1)c1cn(CC(=O)N2CCCC2)c2ccccc12 | -1.0
S=C(Nc1ccccn1)NC1CCCCC1 | 0.1
Cc1cc(C)nc(SCc2ccc(C(=O)N/N=C/c3ccccn3)cc2)n1 | -1.4
Cc1nnsc1C(=O)Nc1cccc(Cl)c1C | -1.1

Ordered by molecular weight (ascending): some entries from above
SMILES | STK33 inh
CCN1/C(=C(\O)c2ccccc2)C(=O)c2ccccc2S1(=O)=O | 0.0
Cn1cc(/C=N/NC(=O)COc2ccccc2[N+](=O)[O-])c2ccccc21 | 0.9
Cc1cc(C)nc(SCc2ccc(C(=O)N/N=C/c3ccccn3)cc2)n1 | -1.4

Remaining list, next part
SMILES | STK33 inh
CCN1CCN(C(=O)C2COc3ccccc3O2)CC1 (stereo not drawn) | 0.0
CCOC(=O)c1ccccc1NC(=O)N1CCn2c(C)ccc2C1CC (stereo not drawn) | -0.8
CS(=O)(=O)c1ccc(C(=O)NC2CCCCC2)cc1 | -0.3
O=C(Nc1ccc(F)cc1)NC1(C(=O)NCc2ccc3c(c2)OCO3)CCCCC1 | -2.5
Cc1nn(C)c(C(=O)Nc2ccc(Br)cc2F)c1Br | -0.6
CC(C)n1cnc2cc(NCc3nc4ccccc4n3C)ccc21 | 2.9
CCc1ccc(N/C(SC)=C(/C#N)C(N)=O)cc1 | -2.1
CCOc1ccc(NS(=O)(=O)c2ccc(NS(=O)(=O)c3ccccc3)cc2)cc1 | -0.3
COc1ccc(N2CCN(C(=O)C3CCCN(S(=O)(=O)c4c(C)noc4C)C3)CC2)cc1 (stereo not drawn) | -0.7
Cc1ccc([N+](=O)[O-])cc1S(=O)(=O)NCCc1c(C)[nH]c2c(C)cccc12 | 3.4
CC1(C)Cc2cccc(OCC(=O)Nc3ccccc3N3CCOCC3)c2O1 | 0.2
COc1ccc(N2CCN(C(=O)Cn3nnc(-c4ccc(N(C)C)cc4)n3)CC2)cc1 | -0.4
O=C(COc1ccccc1)NCC(=O)N/N=C/c1cc(Br)ccc1OCc1ccccc1 | -0.1
Cc1ccc2c(C)c(C(=O)N(Cc3ccncc3)CC3CCCO3)oc2c1C (stereo not drawn) | 0.2
CC(C)(C)c1ccccc1OCC(O)CN1CCN(c2ccccn2)CC1 (stereo not drawn) | -2.6
O=C1S/C(=C\C=C\c2ccco2)C(=O)N1c1ccc(O)cc1 | 1.0
O=C(NCCc1ccccc1)c1cccc(S(=O)(=O)N2CCCCC2)c1 | -0.5
COc1ccc(NC(=O)NCCN2CCN(c3cc(OC)ccc3OC)CC2)cc1 | -1.7
NCCc1nnc(SCC(N)=O)o1 | -0.5
COc1ccc([N+](=O)[O-])cc1NC(=O)COC(=O)c1ccccn1 | -0.6
CCO[C@@H]1OC(C(=O)N2CCN(Cc3ccc4c(c3)OCO4)CC2)=C[C@H](C2CC2)[C@H]1CCCO | 0.5
COCCNC(=O)CCc1nnc(C2(c3ccc(Cl)cc3)CCC2)o1 | -1.2
CCCCCOC(=O)C1[C@H]2C(=O)N(CCCOC)C[C@]23C=C[C@H]1O3 (stereo partly drawn) | -1.5
COc1cc(C(=O)NCC(=O)N2CCN(S(=O)(=O)c3ccccc3)CC2)cc(OC)c1OC | -0.4
COc1cccc(C2/C(=C(/O)c3ccc4c(c3)CC(C)O4)C(=O)C(=O)N2CCCn2ccnc2)c1 (stereo not drawn) | -0.7
The list continues.
SMILES | STK33 inh
CN(C)C=NC(=O)c1[nH]c2ccc(Cl)cc2c1-c1ccccc1 | 2.1
COc1cccc(N2CC(C(=O)Nc3nnc(SCc4cccnc4)s3)CC2=O)c1 (stereo not drawn) | -2.5
Cc1ccc(S(=O)(=O)CC(=O)N2CCN(c3ccccc3F)CC2)cc1 | -0.8
COC(=O)c1ccc(C2c3c(n[nH]c3C)C(=O)N2c2ccc(C)cc2)cc1 (stereo not drawn) | -0.4
CC(=O)n1cc([C@@H]2C=C(C(=O)N3CCOCC3)O[C@H](OCc3ccc(CO)cc3)C2)c2ccccc21 | -1.4
CCC(=O)Nc1nnc(SCC(=O)NCC2CCCO2)s1 (stereo not drawn) | 0.0
COc1ccc(OCc2nnc(NC(=O)Nc3ccc(F)cc3)s2)cc1 | -0.2
CCn1cc(C(=S)N2CCC(C(N)=O)CC2)c2ccccc21 | -0.9
CC(=O)N1c2ccc(S(=O)(=O)NCCC(=O)Nc3cccc(Cl)c3)cc2CC1C (stereo not drawn) | 1.6
O=C(NC1CCCCNC1=O)c1ccccc1 (stereo not drawn) | -1.4
Cc1ccc(C(=O)N/N=C\c2sccc2C)cn1 | 2.1
COc1cc(C(=O)NCC2CCCCC2)ccc1OCc1c(C)noc1C | -0.4
O=C1c2ccccc2C(=O)N1CCn1nc(Cl)nc1Cl | -0.6
O=C(c1ccco1)n1nc(NCc2ccccc2)nc1NCc1ccccc1 | -1.5
COc1ccc2c(=O)c(-c3ccccc3)c(C)oc2c1 | 3.2
CCCCNC(=O)c1cccc(C(=O)NCCCC)c1 | -0.7
CCCc1cc(=O)[nH]c(SC(C)C(=O)N2c3ccccc3CC2C)n1 (stereo not drawn) | -2.0
CC(=O)c1cc(OC(=O)c2ccncc2)ccc1OC(=O)c1ccncc1 | -1.5
COc1ccc(N(C)S(=O)(=O)c2cccc(C(=O)NCc3ccc4c(c3)OCO4)c2)cc1 | -0.5
O=c1cc(CSc2nnnn2-c2ccccc2)nc2sccn12 | 0.5
CC(C)NCC(O)COC1CCC(C(C)(C)C)CC1 (stereo not drawn) | -1.6
O=C(NC1CCCC1)c1ccccc1-c1ccccc1 | 0.4
C/C(=N\Nc1nc(Cl)c(Cl)cc1Cl)c1ccc(S(=O)(=O)NCc2ccco2)cc1 | -2.8
